gsp antag = gsp mutant antagonism; AID 624288; gsp-mutant cells, cAMP HTRF, 30 min; control for the full effect not named in the record; 0.4% of 340,000 active; Potency, µM (doses to about 76.9 µM), for inactives: at the highest dose activity change, negative = inhibition, most hits filed as inhibitors; active = falling curve of any shape with a large fitted effect; inconclusive = falling curve, mostly with a smaller effect; inactive = flat or rising curve; cell line not stated here;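 also: intracellular cAMP measured with PDE inhibitor Ro 20-1724 present during compound exposure; potency is read from the fitted curve at half-maximal effect; % is scaled to controls: 0 for no effect and ±100 for the full control effect; nearly all actives have a fitted effect of over 65% in size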
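HTRF cAMP read-out (cAMP-d2 plus anti-cAMP antibody-K in lysis buffer, 30 min RT). Before lysis, cells are exposed to compounds with […] for 30 min at 37C in DPBS containing Ca/Mg, BSA and Tween 20.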
Menin MLL FP FL = inhibitors of human menin-MLL interaction, wild-type MLL peptide | Fluorescence polarization, fluorescein-MLL peptide displacement from menin | FP activity change, % at 61.4 µM | 290,000 tested, under 10 active | AID 1766; inconclusive = falling polarisation curve, or a change in total fluorescence; inactive = total fluorescence flat and polarisation flat or rising; no compound was filed as active; the % refers to the polarisation; negative = inhibition;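 also: % of control where 0% means no effect; inhibitors lower the polarisation; unlabelled MLL peptide was the positive control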
PINK1 expr mod = changes PINK1 expression; PINK1 immunofluorescence, high-content cytometry, 24 h; Potency, µM (top dose mostly 76.6 µM), for the others: top-dose activation (PINK1 increase), most hits filed as activators; 0.2% of 410,000 active; AID 624263; active = well fitted activation curve with a large enough effect; inconclusive = small, poorly fitted or top-dose-only effect; inactive = flat fitted curve, though single readings scatter; cell line not stated here;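 also: potency is read from the fitted curve at half-maximal effect; % of control where 0% means no effect; nearly all actives have a fitted effect of over 65% in size; a mitochondrial uncoupler was the plate control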
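Measures PINK1 amount and localization on or inside mitochondria by immunofluorescence. Stable cells get compounds at 5 concentrations for 24 hours before fixation and staining; CCCP controls included.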
D2 agonist = agonists of human D2 dopamine receptor (beta-arrestin). P14416. DiscoveRx PathHunter D2 beta-arrestin, luminescence, 90 min; 100% = 57 uM dopamine signal. activation, % (no concentration beside the values). 0.084% of 360,000 active; in the data active = activation above about 40%; inconclusive = about 15% to 40%; inactive = below about 15%; also: compound concentration not given in the record; the text of the record calls up to 30% inactive
Target sequence (P14416 whole entry, looked up): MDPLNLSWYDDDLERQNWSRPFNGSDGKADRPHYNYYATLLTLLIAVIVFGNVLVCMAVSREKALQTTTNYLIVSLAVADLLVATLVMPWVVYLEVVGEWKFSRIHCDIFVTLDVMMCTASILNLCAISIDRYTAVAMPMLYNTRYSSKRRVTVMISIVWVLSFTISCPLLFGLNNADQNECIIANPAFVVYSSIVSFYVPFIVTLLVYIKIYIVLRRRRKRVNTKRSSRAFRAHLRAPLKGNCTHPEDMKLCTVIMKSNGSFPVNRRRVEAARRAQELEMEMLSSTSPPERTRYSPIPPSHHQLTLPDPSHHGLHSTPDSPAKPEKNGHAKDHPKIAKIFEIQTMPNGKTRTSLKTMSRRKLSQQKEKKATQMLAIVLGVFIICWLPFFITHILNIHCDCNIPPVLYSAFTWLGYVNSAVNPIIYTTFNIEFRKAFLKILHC
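Agonist mode: compounds alone added to overnight-plated D2 PathHunter cells for 90 min at 37 C, with 57 uM final dopamine (EC100) defining full response. Beta-arrestin recruitment detected by chemiluminescent reagent, read after 1 h at ambient temperature.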
gsp ag = activates gsp, the McCune-Albright syndrome mutation. gsp mutant cells, cAMP HTRF, 30 min; control for the full effect not named in the record. Potency, µM (top dose mostly 76.9 µM), without a hit: top-dose activation (cAMP increase), usual class: activators. 0.13% of 340,000 active; active = well fitted activation curve with a large enough effect; inconclusive = small, poorly fitted or top-dose-only effect, or another doubt; inactive = no such curve, though single readings can be large or run the other way; cell line not stated here;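 also: phosphodiesterase inhibitor Ro 20-1724 added with compounds to block cAMP breakdown; potency is read from the fitted curve at half-maximal effect; nearly all actives have a fitted effect of over 60% in size; about a fifth of the inactives were tested at one dose only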
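Cells stably selected in G418 were plated at 2000/well, grown 16-24 hr, then given compounds in DMSO with the PDE inhibitor […] (300 uM solution added) for 30 min at 37C; cAMP was read by HTRF.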
Sfp PPTase inh = inhibitors of Bacillus subtilis Sfp phosphopantetheinyl transferase. Q9F4F7. Biochemical Sfp PPTase activity, qHTS. Potency, µM, without a hit: max response, negative = inhibition, actives largely listed as inhibitors. 3.5% of 310,000 active; active = well fitted inhibition curve with a large enough effect; inconclusive = small, poorly fitted or top-dose-only effect, or another doubt; inactive = no such curve, though single readings can be large or run the other way;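 also: the enzyme is Sfp with the accession as filed and its product quenches rhodamine fluorescence; potency is read from the fitted curve at half-maximal effect; 0% = enzyme reaction without inhibitor and -100% = no enzyme wells; top concentration of the series not given in the record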
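Buffer: 50 mM Hepes-Na pH 7.6, 10 mM MgCl2, 0.01% Nonidet P-40, 0.01% BSA. Enzyme 15 nM, pre-exposed to compound 15 min; substrates then added and fluorescence change tracked over 30 min.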
ClpP mod = qHTS Assay for Activators of ClpP | ATP-dependent Clp protease proteolytic subunit (Bacillus subtilis (strain 168)), P80244 | 1.9% of 340,000 active | Potency, µM (highest dose often 57.5 µM), inactives show top-dose activity change, negative = active | AID 651965, 2013 | purified B. subtilis ClpP, FRET peptide cleavage, 20 min; active = well fitted falling curve with a large enough effect; inconclusive = small, poorly fitted or top-dose-only effect; inactive = no such curve, though single readings can be large or run the other way; also: potency is read from the fitted curve at half-maximal effect; the source files actives as falling curves though it sought activators and does not explain the sign; nearly all actives have a fitted effect of over 65% in size; many hits overshoot -100%
Target sequence (P80244 whole entry, looked up): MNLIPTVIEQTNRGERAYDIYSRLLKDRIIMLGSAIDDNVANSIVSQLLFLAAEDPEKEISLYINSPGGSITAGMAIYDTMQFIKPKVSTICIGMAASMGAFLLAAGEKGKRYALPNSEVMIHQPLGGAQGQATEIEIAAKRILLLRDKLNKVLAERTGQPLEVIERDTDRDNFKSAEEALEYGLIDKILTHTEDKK
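ClpP 10 microg/mL final, pH 8 Tris/KCl buffer with BSA, glycerol, Tween-20; compound pinned in; FRET-FV substrate; RT 20 min; Ex320/Em430; ΔFRET vs ADEP 5.8 microM, DMSO, no enzyme.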
Numbers without * were called inactive; u = inconclusive; x = not tested or not shown; & = joins results of further samples; [ ] = another dose, or the depositor's remark.

no.	structure	Menin MLL FP FL	Sfp PPTase inh	gsp antag	ClpP mod	PINK1 expr mod	D2 agonist	gsp ag
1	Cc1ccc(C(=O)N2CCCC(C(=O)c3ccc(Cl)cc3C)C2)cn1 (stereo unspecified)	1.2	8.7%	-7.0%	x	-0.2%	2.1	5.4%
2	CCCC[C@H]1COCCS(=O)(=O)N1Cc1ccc(F)cc1	-2.6	11.2%	1.0%	1.4%&0.2%	0.6%	-2.1	u
3	Nc1nc2c(s1)CCc1ccccc1-2	5.3	79.4µM*	10.9%	-17.1%	1.7%	11.0	-17.1%
4	CC(=O)Nc1nc2c(s1)CCc1ccccc1-2	8.9	-9.3%	5.2%	1.3%	0.4%	0.1	19.1%
5	COc1ccc(N2CCN(S(=O)(=O)c3cc(C)ccc3OC)CC2)cc1	5.6	-3.0%	-8.4%	x	-1.6%	4.1	-5.5%
6	Cc1cc(C)nc(N/N=C/C(Cl)=C/c2ccccc2)n1	3.3	8.2%	-0.4%	-1.9%	-2.6%[38.3 µM]	-1.6	-2.0%
7	CCOc1cc(C(=O)Nc2cccnc2)cc(OCC)c1OCC	3.0	27.0%	-0.5%	-1.9%	5.4%	3.9	-20.8%
8	Cc1cccc(OCCn2c(CCCO)nc3ccccc32)c1	2.6	-1.6%	-5.7%	0.0%	-3.7%	-2.9	11.0%
9	COc1cc(NC(=O)c2ccc(Br)cc2)c(OC)cc1NC(=O)c1ccccc1	-3.7	20.1%	12.5%	8.7%	8.5%	2.4	-47.6%[inhibitor]
10	N#CC1=C(N)Oc2cc(N)ccc2C1c1ccccc1F (stereo unspecified)	-0.3	-2.6%	-0.4%	0.7%	6.5%	1.3	-10.6%[15.4 µM]
11	O=C(c1ccc(Cl)cc1)C1CCCN(C(=O)c2csnn2)C1 (stereo unspecified)	-1.1	-2.1%	10.1%	x	0.4%	2.4	-10.4%[15.4 µM]
12	CCC(C)c1ccccc1NC(=O)C(C)OC(=O)c1ccco1 (stereo unspecified)	x	x	3.0%	1.3%	0.5%	-1.4	1.2%
13	CCOc1ccccc1NC(=O)COC(=O)CN(C)S(=O)(=O)c1ccc(C)cc1	-2.2	8.3%	-21.2%	0.3%	1.3%	-2.4	2.3%[15.4 µM]
14	COc1ccc(OCC(=O)NNC(=O)C2CCCO2)cc1 (stereo unspecified)	6.2	-4.8%	6.6%	1.5%	-1.3%	-13.6	3.5%[15.4 µM]
15	CCOC(=O)C1=CCN(S(=O)(=O)c2ccccc2C)C1c1cccc(C)c1 (stereo unspecified)	x	x	x	-0.5%	1.8%	-3.5	x
16	COc1ccccc1NC(=O)CNC(=O)c1ccc(Br)o1	-0.4	18.8%	-6.8%	-2.6%	-1.3%	-4.3	6.2%

Compounds above containing a carbonyl joined to an NH by a bond outside any ring (seven):
no.	structure	Menin MLL FP FL	Sfp PPTase inh	gsp antag	ClpP mod	PINK1 expr mod	D2 agonist	gsp ag
4	CC(=O)Nc1nc2c(s1)CCc1ccccc1-2	8.9	-9.3%	5.2%	1.3%	0.4%	0.1	19.1%
7	CCOc1cc(C(=O)Nc2cccnc2)cc(OCC)c1OCC	3.0	27.0%	-0.5%	-1.9%	5.4%	3.9	-20.8%
9	COc1cc(NC(=O)c2ccc(Br)cc2)c(OC)cc1NC(=O)c1ccccc1	-3.7	20.1%	12.5%	8.7%	8.5%	2.4	-47.6%[inhibitor]
12	CCC(C)c1ccccc1NC(=O)C(C)OC(=O)c1ccco1 (stereo unspecified)	x	x	3.0%	1.3%	0.5%	-1.4	1.2%
13	CCOc1ccccc1NC(=O)COC(=O)CN(C)S(=O)(=O)c1ccc(C)cc1	-2.2	8.3%	-21.2%	0.3%	1.3%	-2.4	2.3%[15.4 µM]
14	COc1ccc(OCC(=O)NNC(=O)C2CCCO2)cc1 (stereo unspecified)	6.2	-4.8%	6.6%	1.5%	-1.3%	-13.6	3.5%[15.4 µM]
16	COc1ccccc1NC(=O)CNC(=O)c1ccc(Br)o1	-0.4	18.8%	-6.8%	-2.6%	-1.3%	-4.3	6.2%

Sorted by the number under D2 agonist (low to high): three from the list above.
No. | Compound | Menin MLL FP FL | Sfp PPTase inh | gsp antag | PINK1 expr mod | D2 agonist | gsp ag
15 | CCOC(=O)C1=CCN(S(=O)(=O)c2ccccc2C)C1c1cccc(C)c1 (stereo unspecified) | x | x | x | 1.8% | -3.5 | x
10 | N#CC1=C(N)Oc2cc(N)ccc2C1c1ccccc1F (stereo unspecified) | -0.3 | -2.6% | -0.4% | 6.5% | 1.3 | -10.6%[15.4 µM]
11 | O=C(c1ccc(Cl)cc1)C1CCCN(C(=O)c2csnn2)C1 (stereo unspecified) | -1.1 | -2.1% | 10.1% | 0.4% | 2.4 | -10.4%[15.4 µM]

Next section
no.	structure	Menin MLL FP FL	Sfp PPTase inh	gsp antag	ClpP mod	PINK1 expr mod	D2 agonist	gsp ag
17	CCOc1ccc(C(=O)NCC(=O)OCc2csc(-c3ccccc3)n2)cc1	-1.8	-13.9%	-10.6%	-4.7%	-2.5%	-3.0	6.8%
18	CCC[C@@H](CN1CCC[C@H]1CN1C(N)=NC[C@H]1CC(C)C)N1C[C@@H](Cc2ccccc2)N(CCc2ccc(Cl)c(Cl)c2)C1=N	x	x	-2.5%	-1.8%	0.0%	-5.6	x
19	Cc1nnc(SCC(=O)NCc2ccc3c(c2)OCO3)[nH]c1=O	2.3	u	2.2%	-1.6%	x	-1.9	2.4%
20	c1ccc(OCCN2CCNCC2)cc1	x	x	15.1%	x	2.1%	-0.3	-18.2%
21	CCCCCNC(=O)c1ccc(NC(=O)CC2SC(N3CCCC3)=NC2=O)cc1 (stereo unspecified)	x	x	x	1.2%	1.5%	-0.3	-62.2%[inhibitor]
22	CN1CCN(C(=O)/C(=C\c2cccc([N+](=O)[O-])c2)NC(=O)c2cccs2)CC1	-2.7	14.0%	3.6%	-1.3%	-0.1%	-1.7	-0.6%[15.4 µM]
23	Cc1ccc(-c2nn(-c3ccccc3)cc2/C=N/NS(=O)(=O)c2ccccc2)cc1	-2.1	16.8%	-22.1%	1.1%	1.9%[38.3 µM]	-1.1	0.2%
24	CC(C)c1ccc(NC(=O)COc2ccccc2)cc1	1.2	2.3%	6.3%	-0.9%	0.9%	-3.1	-0.7%[15.4 µM]

Values by screen from the list.
Sfp PPTase inh, compounds 13 to 16, in order: 8.3%, -4.8%, x, 18.8%

(list continues)
no.	structure	Menin MLL FP FL	Sfp PPTase inh	gsp antag	ClpP mod	PINK1 expr mod	D2 agonist	gsp ag
25	N#Cc1c(NC(=O)CSc2ncn(-c3ccccc3)n2)sc2c1CCCC2	1.7	u	-17.0%	-2.1%	3.8%	-3.0	-35.6%[inhibitor]
26	Cc1c(NC(=O)c2cc(-n3cnnc3)ccc2Cl)cccc1-c1nc2ccccc2o1	4.3	-16.5%	u	2.5%	10.4%	-1.7	1.4%
27	O=C(NCCOc1nc(N2CCCCC2)nc(N2CCCCC2)n1)Nc1ccccc1	7.8	20.8%	-20.6%	x	6.3%	0.1	37.9%
28	CCc1ccccc1NC(=O)CN(C)C(=O)Cn1ncc(Cl)c(Cl)c1=O	1.4	11.4%	-3.5%	0.8%	-3.2%	-5.8	-4.6%
29	Cn1cnnc1Sc1ccc(C(=O)OCC(=O)NC2CC2)cc1[N+](=O)[O-]	-2.0	-19.1%	12.6%	x	-1.2%	-2.3	-10.6%[15.4 µM]
30	CCCC(=O)Nc1c(C)n[nH]c1C	2.6	9.5%	14.8%	-4.2%	0.9%	2.2	9.6%
31	COCCNC(=O)c1cccc(OC2CCN(Cc3ccc(C(C)C)cc3)CC2)c1	-4.4	2.4%	-11.5%	x	2.4%	-1.5	-26.0%
32	O=C(CN1CCCCCC1)Nc1ccccc1F	1.5	u	14.1%	u	0.5%	-0.3	11.3%
33	O=C(Nc1ccc2[nH]c(=S)sc2c1)c1ccccc1	4.9	50.1µM*	-15.0%	x	3.0%	-5.6	20.7%[15.4 µM]
34	O=C(c1ccco1)N1CCN(C(=S)Nc2cccc([N+](=O)[O-])c2)CC1	-1.2	8.0%	-4.4%	x	0.0%	-0.6	0.2%[15.4 µM]
35	COC(=O)c1nc2n(n1)C(c1cccc(Cl)c1)C1=C(CCCC1=O)N2 (stereo unspecified)	1.2	20.3%	-7.1%	0.6%	1.3%	1.6	-17.1%

High-throughput results from PubChem BioAssay.
